# Source: PubChem
# NPR1 antag – human Npr1 receptor antagonism; Potency, µM (top dose mostly 46.3 µM), without a hit: top-dose activity change, negative = inhibition, most hits filed as inhibitors; HEK293 hNpr1 GloSensor cGMP, ANP-stimulated luminescence; hit rate 1.6% among 76,000; active = well fitted inhibition curve with a large enough effect; inconclusive = small, poorly fitted or top-dose-only effect; inactive = no such curve, though single readings can be large or run the other way;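 note: nearly all actives have a fitted effect of over 60% in size; nearly all hits also lower the signal before the agonist is added; a reference antagonist and vehicle were the controls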
# Target sequence (P16066 whole entry, looked up): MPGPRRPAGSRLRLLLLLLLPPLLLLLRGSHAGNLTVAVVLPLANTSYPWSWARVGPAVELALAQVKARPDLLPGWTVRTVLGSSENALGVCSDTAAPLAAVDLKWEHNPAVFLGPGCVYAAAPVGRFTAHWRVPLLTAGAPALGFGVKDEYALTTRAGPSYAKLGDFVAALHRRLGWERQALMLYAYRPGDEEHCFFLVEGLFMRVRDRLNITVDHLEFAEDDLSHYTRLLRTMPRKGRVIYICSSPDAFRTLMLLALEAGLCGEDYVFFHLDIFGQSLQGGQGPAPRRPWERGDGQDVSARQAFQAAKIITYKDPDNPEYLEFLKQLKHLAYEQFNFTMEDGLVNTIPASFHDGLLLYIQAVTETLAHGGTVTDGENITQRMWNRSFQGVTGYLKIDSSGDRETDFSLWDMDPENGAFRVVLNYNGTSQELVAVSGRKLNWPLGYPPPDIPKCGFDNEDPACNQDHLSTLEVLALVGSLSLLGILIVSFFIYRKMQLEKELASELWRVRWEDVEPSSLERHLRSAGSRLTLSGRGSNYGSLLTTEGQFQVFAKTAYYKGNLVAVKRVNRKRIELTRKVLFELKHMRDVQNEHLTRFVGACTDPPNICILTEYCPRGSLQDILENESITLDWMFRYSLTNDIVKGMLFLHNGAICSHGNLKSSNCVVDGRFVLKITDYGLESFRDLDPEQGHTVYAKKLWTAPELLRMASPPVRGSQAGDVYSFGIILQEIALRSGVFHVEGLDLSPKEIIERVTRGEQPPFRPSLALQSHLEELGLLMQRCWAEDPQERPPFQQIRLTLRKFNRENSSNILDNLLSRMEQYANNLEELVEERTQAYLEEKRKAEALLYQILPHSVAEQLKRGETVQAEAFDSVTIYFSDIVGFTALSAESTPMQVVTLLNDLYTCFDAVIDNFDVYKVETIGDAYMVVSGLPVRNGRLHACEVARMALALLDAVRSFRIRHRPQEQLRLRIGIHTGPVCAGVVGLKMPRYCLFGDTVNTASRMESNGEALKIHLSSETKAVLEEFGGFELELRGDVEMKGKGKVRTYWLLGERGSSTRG
#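 HEK293 cells stably expressing human Npr1 and cGMP GloSensor pGS-40F, loaded 2 h with 2% GloSensor reagent, given compound 30 min at room temperature. Luminescence read before and 20 min after 0.1 nM hNppA.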
# * = called active by the depositor; ? = inconclusive; [ ] = dose if it differs, or a comment. % is set by controls: 0 for no effect and ±100 for the full control effect; potency is the fitted concentration of half-maximal effect. This is a subset; rates above refer to the full screens.
SMILES,NPR1 antag
CN1C(=O)Cc2cc(C(=O)NCc3cccnc3)ccc21,3%
COCCN(C)C(=O)c1ccc2c(c1)NC(C)(COc1ccc3[nH]ccc3c1)CO2 (stereo unspecified),0%[70.6 µM]
COc1cccc(CN2CC[C@H]3COC(=O)N3c3cc(F)ccc3C2)c1,4%[70.6 µM]
O=C(c1nccc2ccccc12)N1CCc2c(nc3cc(-c4ccccc4)[nH]n3c2=O)C1,5%
c1ccc(-c2csc(CCNc3nccc(-c4ccccn4)n3)n2)cc1,?
COc1cc(Cl)c(C)cc1NC(=O)Cn1ccn2nc(-c3ccccc3)c(CO)c2c1=O,-17%
Cc1ccc(C2=NC3(CCN(C(=O)c4cccc(C)c4)CC3)ON2)cc1,-7%
Cc1cnc(C(=O)N2CCCN(C(=O)C3CC3)C(c3ccccc3)CC(=O)NCC2)cn1 (stereo unspecified),4%
COc1ccc(S(=O)(=O)N2CCc3nnc([C@@H]4C[C@@H](O)CN4C)n3CC2)cc1,-2%
Cc1nc2c(c(NC3CC3)n1)CCN(C(=O)c1ccc(=O)[nH]n1)CC2,11%
CSCC(=O)NCCC[C@H](NC(=O)[C@@H]1[C@@H](NC(=O)NC(C)C)CCN1C(=O)CSC)C(N)=O,0%
CC(=O)N1CCCN(C(=O)c2cnc3c(c2)N(C(=O)CCc2ccccc2)CCC3)CC1,1%[70.6 µM]
Cc1cc(Cl)ccc1OCC(=O)N1CC(CO)C2(CCNCC2)C1 (stereo unspecified),11%
Cc1noc2c(N3CCOCC3)cc(-c3ccc(F)cc3)nc12,0%[70.6 µM]
CCCc1ccc(S(=O)(=O)N2CCC(n3cnnc3C)CC2)cc1,-23%
Cc1nn2c(c1-c1ccccc1OCc1ccccc1)N(C(=O)C1CCOCC1)CCC2,-20%[70.6 µM]
O=C(N[C@H]1CO[C@H]2[C@@H]1OC[C@@H]2Nc1nccc(-c2ccc(-c3ccccc3)cc2)n1)C1CC1,?
CC(=O)N1C[C@H](NC(=O)c2cc(=O)[nH]c3cc(F)ccc23)[C@@H](C2CC2)C1,6%
Cn1ccnc1-c1ccc(N2CC[C@](C)(O)[C@@H](O)C2)nn1,-1%
CN1CCCN(C(=O)C2CCCN(Cc3ccncc3)CCC(=O)NCC2)CC1 (stereo unspecified),7%
Cc1cc(C2CCCN2C(=O)c2ccn(C)n2)on1 (stereo unspecified),7%
O=C(COc1cccnc1)N[C@H]1CCOC[C@H]1C1CCOCC1,0%
Cc1ccc(CN2CC[C@H](c3nnc(-c4ccco4)o3)C2)o1,1%[70.6 µM]
CN(c1cc(=O)c2ccnc(NCc3ccc4c(c3)OCO4)c2o1)C1CCOCC1,-2%[70.6 µM]
O=C(NC1CCCN(c2nc3ncccc3o2)C1)c1cccc(Cl)c1 (stereo unspecified),10%
# (list continues)
SMILES,NPR1 antag
CCCc1nnc([C@H]2CCN(C(=O)c3ccccc3)C2)o1,0%[70.6 µM]
COc1ccc(S(=O)(=O)N2CCC(CC(=O)NCc3ccccc3)C2)cc1OC (stereo unspecified),-5%
Cc1ccc(CNC(=O)C2CCN(c3cnc4nccnc4c3)CC2)o1,-1%
CC(C)NC(=O)N1CCCC(Cn2c(C3CC3)nc3cccnc32)C1 (stereo unspecified),-2%
CCNC(=O)c1n[nH]c2c1CN(C(=O)c1ccccc1F)CC2,9%
Cn1nnnc1C1CCCN(C(=O)c2cccc(F)c2)C1 (stereo unspecified),5%
CCn1cc(-c2ccc(Cl)cc2)cc1C(=O)N1CCN(c2ccccn2)CC1,?
O=C(Cc1c[nH]c2ncc(-c3cccc(Cl)c3)cc12)NCc1cccnc1,35µM*
COc1cccc(-c2cc3c(=O)n(CCNC(=O)c4ccc(F)cc4)ccn3n2)c1,-3%
COc1cccc(CCC(=O)N2CCC3(CC2)NC(=O)N(c2ccccc2)N3)c1,1%
O=C([C@@H]1C[C@H](F)CN1S(=O)(=O)c1ccccc1F)N1CCc2ccccc2C1,2%
COc1cc(CN2C[C@@H](CO)[C@H](C(=O)NC3CC3)C2)ccc1F,10%
CCOc1nccn2c(-c3ccc(CN4CCNC(=O)C4)cc3)cnc12,5%[70.6 µM]
C=CCN(Cc1ccc(F)cc1)C(=O)C(C)Oc1ccccc1OC (stereo unspecified),-11%
COc1ccc(-c2cc3c(ccn3C)c(C(=O)NCc3cccnc3)n2)cc1,-30%[70.6 µM]
CC(C)(C)C(=O)N1CCc2nc(-c3ccccc3)nc(-c3ccc(Cl)cc3)c2C1,0%
CN1C(=O)C(Cc2nc(-c3ccc4nc[nH]c4c3)no2)N(C)C1=O (stereo unspecified),3%
CCCNC(=O)C1N(c2ccc(OC)cc2)C(=O)C12CCCCC2 (stereo unspecified),2%
O=C(N[C@H]1C[C@H]2C(=O)NC[C@@H](CCC(=O)N3CCN(c4ccccn4)CC3)N2C1)c1cccs1,4%
CCS(=O)(=O)N1CCc2n[nH]c(=O)n2CC1,5%
COc1ccc(Cl)cc1S(=O)(=O)N1CCC(n2cnnc2C(C)C)CC1,-3%
CC(C)N1C(=O)Cc2ccccc2C1C(=O)NCc1cccc(F)c1 (stereo unspecified),-1%
COc1ccccc1-c1ccnc(N[C@H]2CO[C@H]3[C@@H]2OC[C@@H]3NC(=O)CCC(=O)O)n1,2%[70.6 µM]
Cc1ccc(C(=O)NC2CCN(c3cc(-c4cccs4)[nH]n3)C2)cc1F (stereo unspecified),0%
COc1ccc(-c2cc(N3CCN(C(=O)c4cccc(OC)c4OC)CC3)n[nH]2)cc1,3%

# Three compounds out of the list above, ordered by the number in NPR1 antag, smallest number first:
SMILES,NPR1 antag
C=CCN(Cc1ccc(F)cc1)C(=O)C(C)Oc1ccccc1OC (stereo unspecified),-11%
Cc1ccc(CNC(=O)C2CCN(c3cnc4nccnc4c3)CC2)o1,-1%
CC(C)(C)C(=O)N1CCc2nc(-c3ccccc3)nc(-c3ccc(Cl)cc3)c2C1,0%

# Next part.
SMILES,NPR1 antag
CNC(=O)C1(N2CCC[C@H]2C(=O)NCCc2ccccn2)CCCCC1,1%[70.6 µM]
Cc1nc(N2CCC(NC(=O)c3ccc(C#N)cc3)CC2)cc(C(F)(F)F)n1,?
CS(=O)(=O)N1CCC(C2CCN(C(=O)NC3CCCC3)C2)CC1 (stereo unspecified),14%
CN1[C@@H](CCC(=O)NCc2cccs2)CNC(=O)[C@@H]2[C@H]1CCN2Cc1ncc[nH]1,1%[70.6 µM]
Cc1ccc(-c2ncc3c(n2)OCCN(c2ccccc2)C3=O)cc1F,7.1µM*
Cc1cc(Br)ccc1NC(=O)Cn1nc2c(cc1=O)CCCCC2,3%
O=C(c1cnc(-c2cccs2)nc1)N1CCN(CCO)CC(O)C1 (stereo unspecified),0%
CN(CCCc1nccn1C)C(=O)[C@H]1CCC[C@H](O)C1,0%
Cc1ccc(C)c(S(=O)(=O)N2CCC(n3cnnc3C(C)C)CC2)c1,-20%
Cc1ccc2[nH]c(=O)c(CCC(=O)NCC(C)C)cc2c1,1%
O=C(CCn1ccn2nc3c(c2c1=O)CCCC3)Nc1cccc(F)c1,1%
CC(=O)NCC(=O)N1CCC(c2cc(-c3ccc(F)cc3)n[nH]2)CC1,3%
O=C(c1cccc(F)c1)N1CCCC(CN2CCOCC2)CC1 (stereo unspecified),4%
CCCCn1c(CN(C)C(C)c2ccccc2OC)cnc1S(=O)(=O)CC (stereo unspecified),-4%
Clc1ccccc1C1(c2ccnc(NCCn3cccn3)n2)CCNCC1,-1%
COCCOC1CN(C2CCNCC2)C12CCCCC2 (stereo unspecified),1%
Cc1ccc(C(=O)N2CCC(n3cc(-c4nc(C5CC5)no4)nn3)C2)cc1 (stereo unspecified),?
Cn1cccc1C(=O)N1CC(Oc2ccc(-c3nc(-c4ccccc4)no3)cc2)C1,-15%
COc1cc(NC(=O)O[C@@H]2CC[C@]3(C)C(CC[C@@H](O)[C@H]3CC(=O)N3CC[C@H](NC(C)=O)C3)[C@]2(C)CO)cc(OC)c1 (stereo partly specified),6%
CCC1(N2CCN(C(=O)c3ccc(F)c(Cl)c3)CC2)CCN(C(=O)NC)C1 (stereo unspecified),1%
Cc1ccccc1NC(=O)c1cc2cn(C(C)C)cc2s1,-17%
Cc1cccc(CN2CCCCCCNC(=O)CC2c2ccccc2)c1 (stereo unspecified),-6%
O=C(C1CCCC1)N1CCN(C2CCN(CCc3ccccc3)C2=O)CC1 (stereo unspecified),3%
Cc1ccc(F)cc1-n1nc(-c2c(C)nc3scc(CC(=O)N4CCCC4)n3c2=O)cc1C,-3%
Cc1ccc(C(=O)N2CCCN(C(=O)C3CC3)C(c3ccccc3)CC(=O)NCC2)cn1 (stereo unspecified),2%
# Later entries
SMILES,NPR1 antag
CNC(=O)c1cccn2cncc12,0%[70.6 µM]
Cn1cnc(C(=O)N2CC3CC(C2)[C@H]2CCCC(=O)N2C3)c1 (stereo partly specified),0%
O=C(CCc1nnn2c1CN(C(=O)COc1ccc(F)cc1)CC2)N1CCCC1,-3%
Cc1ncsc1CN1CCc2nn(CC3CC3)c(=O)n2CC1,-2%
CS(=O)(=O)N1CCC(Oc2ccc(C(=O)NCCc3cnccn3)cc2Cl)CC1,-21%
O=C(c1ccccn1)N1CCC(n2cc(-c3nc(-c4ccccc4)no3)nn2)CC1,-24%
COc1ncccc1-c1cc(C(=O)N2CCCC(OC)C2)c2c(c1)ncn2C (stereo unspecified),3%[70.6 µM]
CNC(=O)[C@@H]1CN(C(=O)Cc2c(C)noc2C)C[C@H]1c1nc(COC)no1,0%
COc1ccccc1-c1cc(NCC2CCOCC2)c2onc(C)c2n1,2%[70.6 µM]
CC1(C)C(=O)Nc2ccc(S(=O)(=O)N3CCC(c4noc(-c5cccnc5)n4)C3)cc21 (stereo unspecified),0%
O=C(c1cncc(F)c1)N1CCOCC2(CN(Cc3ccccc3)C2)C1,0%[70.6 µM]
CNC(=O)Cc1cccc(-n2ccnc2-c2cc(OC)c(OC)cc2F)c1,2%
O=C(NC1CCCCC1)C1CN(C(=O)c2ccc(C(F)(F)F)cc2)CC12CCOCC2 (stereo unspecified),-3%
CN1CC(=O)N(c2ccccc2F)Cc2c1ncnc2N1CCC(O)CC1,5%
COC[C@@H]1CN(Cc2ccc(OC)c(C)c2)C[C@H]1C(=O)NC1CC1,0%
OCC1(Cc2ccccc2F)CCCN(c2nnnn2-c2ccccc2)C1 (stereo unspecified),-7%
CNC(=O)c1cc(-c2ccccc2O)cc2c1OCCN2Cc1cccnc1,-20%[70.6 µM]
O=C(NCc1ccc(Cl)cc1)c1ccc2ccnn2c1,-2%[70.6 µM]
O=C1CCN(S(=O)(=O)c2ccccc2)CCCC(c2nc(-c3ccccc3)no2)CCN1 (stereo unspecified),0%
Cc1nc(-c2ccc(F)cc2)n(Cc2nc(-c3ccccc3)oc2C)c(=O)c1CCO,-7%
Cc1n[nH]c(C)c1C(NC(=O)c1c(C)nc2ccc(Cl)cn12)C(=O)O (stereo unspecified),2%
CC(NC(=O)c1cccc(OC2CCN(C(=O)C3CC3)CC2)c1)c1nn[nH]n1 (stereo unspecified),4%
COCc1ccc2c(c1)c(OC(C)(C)C(=O)NCc1ccncc1)nn2Cc1cccnc1,-1%
CC(C)CCN1C[C@@H]2[C@H](C1)N(CCOc1ccccc1)C(=O)C(C)(C)[S+]2(=O)[O-],5%[70.6 µM]
O=C(Nc1cccc(Br)c1)N1CCC2(CC1)SCC(=O)N2Cc1ccccc1,-9%
# (listing goes on)
SMILES,NPR1 antag
COc1cccc(N2CC(C(=O)NCc3ccc(C(F)(F)F)cc3)NC2=O)c1 (stereo unspecified),-4%
O=S1(=O)CCCC(c2nc(-c3ccccc3)nn2Cc2ccccc2)C1 (stereo unspecified),1%
O=C1Nc2ccccc2OCC12CCN(Cc1cncs1)CC2,14%[70.6 µM]
O=C(CCc1cc2n(n1)CCNC2)N1CCN(C(=O)c2cccs2)CC1,1%
O=C(NCc1ccc(F)cc1)N1CC(c2nnc(-c3ccncc3)o2)C2(CCOCC2)C1 (stereo unspecified),0%
Cc1ncoc1C(=O)NCC1Cn2cccc2C(=O)N1CC(C)C (stereo unspecified),-5%
CN1C(=O)C2(CCN(C(=O)CC3CCCC3)CC2)c2ccccc21,-2%
Cc1cc(C)n2nc(C)c(C(=O)N[C@@H]3COCC[C@@H]3OCC3CC3)c2n1,6%
Cc1cnc(C2CCOCC2)n1CC1CCN(C2CCCCCC2)CC1,10%
COCCCN1CC2(CCN(C(=O)c3cnc(SC)nc3)CC2)CC1=O,3%

# By substructure: those above with an NH in an aromatic ring (15)
SMILES,NPR1 antag
COCCN(C)C(=O)c1ccc2c(c1)NC(C)(COc1ccc3[nH]ccc3c1)CO2 (stereo unspecified),0%[70.6 µM]
O=C(c1nccc2ccccc12)N1CCc2c(nc3cc(-c4ccccc4)[nH]n3c2=O)C1,5%
Cc1nc2c(c(NC3CC3)n1)CCN(C(=O)c1ccc(=O)[nH]n1)CC2,11%
CC(=O)N1C[C@H](NC(=O)c2cc(=O)[nH]c3cc(F)ccc23)[C@@H](C2CC2)C1,6%
CCNC(=O)c1n[nH]c2c1CN(C(=O)c1ccccc1F)CC2,9%
O=C(Cc1c[nH]c2ncc(-c3cccc(Cl)c3)cc12)NCc1cccnc1,35µM*
CN1C(=O)C(Cc2nc(-c3ccc4nc[nH]c4c3)no2)N(C)C1=O (stereo unspecified),3%
CCS(=O)(=O)N1CCc2n[nH]c(=O)n2CC1,5%
Cc1ccc(C(=O)NC2CCN(c3cc(-c4cccs4)[nH]n3)C2)cc1F (stereo unspecified),0%
COc1ccc(-c2cc(N3CCN(C(=O)c4cccc(OC)c4OC)CC3)n[nH]2)cc1,3%
CN1[C@@H](CCC(=O)NCc2cccs2)CNC(=O)[C@@H]2[C@H]1CCN2Cc1ncc[nH]1,1%[70.6 µM]
Cc1ccc2[nH]c(=O)c(CCC(=O)NCC(C)C)cc2c1,1%
CC(=O)NCC(=O)N1CCC(c2cc(-c3ccc(F)cc3)n[nH]2)CC1,3%
Cc1n[nH]c(C)c1C(NC(=O)c1c(C)nc2ccc(Cl)cn12)C(=O)O (stereo unspecified),2%
CC(NC(=O)c1cccc(OC2CCN(C(=O)C3CC3)CC2)c1)c1nn[nH]n1 (stereo unspecified),4%
